Compound activity: PubChem BioAssay, Broad Institute
HIV Env fusion: blocks HIV Env-driven cell-cell fusion. HeLa-JRFL Env/CEM21 cell fusion, luciferase. inhibition, % at 12.3 µM. actives 1.1% (n = 360,000);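 active means mean replicate inhibition score of at least 50 and every replicate individually at or above 50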;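 further: 0% = plate neutral controls and 100% = maraviroc near 300 nM; one replicate is shown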
Yeast UUG start: modulators of start codon recognition fidelity in yeast; S. cerevisiae UUG-firefly luciferase reporter, luminescence/redox ratio; activity score, % at 18.7 µM; actives 0.13% (n = 350,000);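 active means replicate mean at a twofold rise or more, about +100% in these data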;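 further: firefly luciferase made from a UUG start codon reports start codon fidelity; reporter light over untreated wells divided by growth signal over untreated wells; some hits fall short of that in this replicate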
Numbers without * were called inactive; [ ] = another dose, or the depositor's remark.

The opening 7 records, to show the layout:
SMILES	HIV Env fusion	Yeast UUG start
C[C@H]1CCCCO[C@@H](CN(C)C(=O)NC2CCCCC2)[C@@H](C)CN([C@@H](C)CO)C(=O)c2cc(NC(=O)Nc3cccc4ccccc34)ccc2O1	-6[16.7 µM]	21
C[C@H]1CN([C@@H](C)CO)C(=O)Cc2cc(NC(=O)Cc3cn(C)c4ccccc34)ccc2O[C@H]1CN(C)CC1CC1	-4[16.7 µM]	3
CC(C)NC(=O)N(C)C[C@@H]1Oc2ccc(NC(=O)Nc3cccc4ccccc34)cc2CC(=O)N([C@H](C)CO)C[C@@H]1C	0[16.7 µM]	-1
COc1cccc(-c2ccc3c(c2)O[C@H](CN(C)C)[C@H](C)CN([C@@H](C)CO)S3(=O)=O)c1	16[16.7 µM]	3
Cc1ccc(S(=O)(=O)N(C)C[C@H]2Oc3ccc(NC(=O)Cc4cn(C)c5ccccc45)cc3CC(=O)N([C@@H](C)CO)C[C@@H]2C)cc1	1[16.7 µM]	-16
CCNC(=O)C[C@@H]1C=C[C@H](NC(=O)C2CC2)[C@H](CO)O1	-41[16.7 µM]	-10
C[C@H](CO)N1C[C@H](C)[C@H](CN(C)C(=O)Cc2ccccc2)OCCCC[C@H](C)Oc2ccc(NC(=O)Nc3ccc(F)cc3)cc2C1=O	-44[16.7 µM]	-9

The list itself, previewed entries included:
SMILES	HIV Env fusion	Yeast UUG start
C[C@H]1CCCCO[C@@H](CN(C)C(=O)NC2CCCCC2)[C@@H](C)CN([C@@H](C)CO)C(=O)c2cc(NC(=O)Nc3cccc4ccccc34)ccc2O1	-6[16.7 µM]	21
C[C@H]1CN([C@@H](C)CO)C(=O)Cc2cc(NC(=O)Cc3cn(C)c4ccccc34)ccc2O[C@H]1CN(C)CC1CC1	-4[16.7 µM]	3
CC(C)NC(=O)N(C)C[C@@H]1Oc2ccc(NC(=O)Nc3cccc4ccccc34)cc2CC(=O)N([C@H](C)CO)C[C@@H]1C	0[16.7 µM]	-1
COc1cccc(-c2ccc3c(c2)O[C@H](CN(C)C)[C@H](C)CN([C@@H](C)CO)S3(=O)=O)c1	16[16.7 µM]	3
Cc1ccc(S(=O)(=O)N(C)C[C@H]2Oc3ccc(NC(=O)Cc4cn(C)c5ccccc45)cc3CC(=O)N([C@@H](C)CO)C[C@@H]2C)cc1	1[16.7 µM]	-16
CCNC(=O)C[C@@H]1C=C[C@H](NC(=O)C2CC2)[C@H](CO)O1	-41[16.7 µM]	-10
C[C@H](CO)N1C[C@H](C)[C@H](CN(C)C(=O)Cc2ccccc2)OCCCC[C@H](C)Oc2ccc(NC(=O)Nc3ccc(F)cc3)cc2C1=O	-44[16.7 µM]	-9
Cc1ccc(-c2ccc3c(c2)O[C@@H](CN(C)Cc2ccccc2)[C@@H](C)CN([C@@H](C)CO)S3(=O)=O)cc1	38[16.7 µM]	1
O=C(C[C@@H]1C=C[C@H](NC(=O)c2cccnc2)[C@H](CO)O1)NCc1ccc(Cl)c(Cl)c1	-10[16.7 µM]	5
O=C(Cc1ccncc1)Nc1ccc2c(c1)[C@@H]1C[C@H](CC(=O)NC3CCCC3)O[C@H](CO)[C@@H]1O2	6[16.7 µM]	1
COc1ccc(NC(=O)N(C)C[C@H]2Oc3ccc(NC(=O)Nc4c(C)noc4C)cc3CC(=O)N([C@H](C)CO)C[C@@H]2C)cc1	-6[16.7 µM]	9
C[C@H]1CN([C@@H](C)CO)C(=O)Cc2cc(NS(=O)(=O)c3ccc(F)cc3)ccc2O[C@@H]1CN(C)S(C)(=O)=O	-8[16.7 µM]	-3
COc1ccc(NC(=O)N[C@H]2CC[C@@H](CCNC(=O)CN3CCOCC3)O[C@@H]2CO)cc1	-7[16.7 µM]	7
O=C(C[C@@H]1C[C@@H]2c3cc(NC(=O)C4CCC4)ccc3O[C@@H]2[C@@H](CO)O1)NC1CCCCC1	-11[16.7 µM]	-11
COCC(=O)Nc1ccc2c(c1)[C@@H]1C[C@H](CC(=O)NCc3cc(F)ccc3F)O[C@@H](CO)[C@@H]1O2	-22[16.7 µM]	0
CCC(=O)N(C)C[C@@H]1Oc2cc(-c3ccccc3F)ccc2S(=O)(=O)N([C@H](C)CO)C[C@H]1C	12[16.7 µM]	8
COc1ccc(C#Cc2cnc3c(c2)C(=O)N([C@H](C)CO)C[C@@H](C)[C@H](CN(C)C(=O)c2ccccc2F)O3)cc1	28[16.7 µM]	11
C[C@@H]1CCCCO[C@H](CN(C)S(=O)(=O)c2cccs2)[C@@H](C)CN([C@H](C)CO)C(=O)c2cc(NC(=O)CCCN(C)C)ccc2O1	7[16.7 µM]	-3
C[C@@H]1CN([C@@H](C)CO)C(=O)Cc2cc(NC(=O)Nc3ccc(C(F)(F)F)cc3)ccc2O[C@@H]1CN(C)Cc1ccc(C(=O)O)cc1	24[16.7 µM]	4
CCC(=O)N[C@@H]1C=C[C@@H](CC(=O)NCc2ccccc2OC)O[C@@H]1CO	16[16.7 µM]	-7
O=C(C[C@H]1C[C@@H]2c3cc(NC(=O)c4cccnc4)ccc3O[C@@H]2[C@H](CO)O1)NCc1cccc(F)c1	-9[16.7 µM]	-15
COc1ccc(S(=O)(=O)N(C)C[C@@H]2Oc3ccc(NC(=O)Cn4cnnn4)cc3CC(=O)N([C@@H](C)CO)C[C@H]2C)cc1	-10[16.7 µM]	6
O=C(Nc1ccc2c(c1)[C@H]1C[C@@H](CC(=O)N3CCOCC3)O[C@H](CO)[C@H]1O2)c1ccc2c(c1)OCO2	22[16.7 µM]	31
Cc1ccc(S(=O)(=O)N(C)C[C@H]2Oc3c(NC(=O)c4ccncc4)cccc3C(=O)N([C@H](C)CO)C[C@H]2C)cc1	-10[16.7 µM]	-17
CN(C)CCCNC(=O)C[C@H]1CC[C@H]2[C@@H](COc3ccc(NC(=O)NC4CCCC4)cc3C(=O)N2C)O1	7[16.7 µM]	-5
NCC[C@H]1CC[C@@H](NS(=O)(=O)Cc2ccccc2)[C@H](CO)O1	-7[16.7 µM]	-13
CCCNC(=O)N1C[C@@H](O)COC[C@H]2O[C@H](CC(=O)N[C@@H]3CCN(Cc4ccccc4)C3)CC[C@@H]21	-13[16.7 µM]	-6
O=C(C[C@H]1C=C[C@H](NC(=O)Nc2ccc(C(F)(F)F)cc2)[C@H](CO)O1)NCc1cc(F)cc(F)c1	5[16.7 µM]	15
C[C@H](CO)N1C[C@H](C)[C@H](CN(C)C(=O)Nc2ccc(C(F)(F)F)cc2)Oc2ccc(NC(=O)c3ccncc3)cc2C1=O	11[16.7 µM]	4
CN1C(=O)c2cc(NC(=O)c3cccc(Cl)c3)ccc2OC[C@H]2O[C@H](CC(=O)NC3CCCCC3)CC[C@H]21	26[16.7 µM]	-7
O=C(C[C@H]1C=C[C@@H](NC(=O)NC2CCCCC2)[C@H](CO)O1)NCc1ccc(Cl)cc1	4[16.7 µM]	-12
CCC(=O)Nc1ccc2c(c1)C(=O)N(C)[C@H]1CC[C@@H](CC(=O)NC3Cc4ccccc4C3)O[C@@H]1CO2	-6[16.7 µM]	9
C[C@@H]1CCCCO[C@@H](CN(C)Cc2ccncc2)[C@@H](C)CN([C@@H](C)CO)C(=O)c2cc(NC(=O)NC3CCCCC3)ccc2O1	-7[16.7 µM]	19
C[C@@H]1CN([C@@H](C)CO)C(=O)c2cc(Br)cnc2O[C@@H]1CN(C)C(=O)CN1CCOCC1	13[16.7 µM]	-6
C[C@@H]1CN([C@H](C)CO)C(=O)c2cccc(NS(C)(=O)=O)c2O[C@H]1CN(C)CC1CCCCC1	4[16.7 µM]	-1
O=C(Nc1ccc(F)cc1)N[C@@H]1CC[C@H](CCn2cc(-c3ccccc3F)nn2)O[C@@H]1CO	-20[16.7 µM]	3
O=C(C[C@@H]1CC[C@@H](NS(=O)(=O)c2ccc(F)cc2)[C@@H](CO)O1)N1CCC(Cc2ccccc2)CC1	24[16.7 µM]	13
C[C@H](CO)N1C[C@H](C)[C@@H](CN(C)Cc2ccc(C(F)(F)F)cc2)Oc2ccc(NC(=O)CCCN(C)C)cc2C1=O	1[16.7 µM]	-12
Cc1ccc(S(=O)(=O)Nc2cccc3c2O[C@H](CN(C)C(=O)Nc2ccc(F)cc2)[C@@H](C)CN([C@@H](C)CO)C3=O)cc1	42[16.7 µM]	4
COCCNC(=O)C[C@H]1CC[C@@H]2[C@@H](COc3ccc(NC(C)=O)cc3C(=O)N2C)O1	-6[16.7 µM]	-5
Cc1ccc(S(=O)(=O)N(C)C[C@H]2OCCCC[C@H](C)Oc3ccc(NC(=O)Nc4ccc5c(c4)OCO5)cc3C(=O)N([C@@H](C)CO)C[C@@H]2C)cc1	-11[16.7 µM]	-4
COc1ccc(S(=O)(=O)N(C)C[C@@H]2Oc3c(NC(=O)c4nc5ccccc5s4)cccc3C(=O)N([C@H](C)CO)C[C@@H]2C)cc1	4[16.7 µM]	6
COCC(=O)N(C)C[C@H]1Oc2cc(-c3ccc(C)cc3)ccc2S(=O)(=O)N([C@@H](C)CO)C[C@@H]1C	-7[16.7 µM]	-3
C[C@H](CO)N1C[C@H](C)[C@H](CN(C)C(=O)Nc2ccc(F)cc2)Oc2ccc(NS(=O)(=O)c3ccc(F)cc3)cc2C1=O	6[16.7 µM]	9
COc1ccc(NC(=O)N(C)C[C@H]2Oc3ccc(NC(=O)C4CC4)cc3CC(=O)N([C@H](C)CO)C[C@H]2C)cc1	10[16.7 µM]	3
CCCC#Cc1cnc2c(c1)C(=O)N([C@@H](C)CO)C[C@H](C)[C@@H](CN(C)C(=O)NCCC)O2	5[16.7 µM]	-1
COc1ccc(S(=O)(=O)N(C)C[C@H]2Oc3ccc(NS(=O)(=O)c4cccs4)cc3CC(=O)N([C@@H](C)CO)C[C@H]2C)cc1	-6[16.7 µM]	14
O=C(C[C@@H]1C=C[C@@H](NC(=O)Nc2ccc3c(c2)OCO3)[C@H](CO)O1)NCc1ccc(Cl)cc1	36[16.7 µM]	-11
C[C@@H]1CN([C@@H](C)CO)C(=O)c2cc(NS(C)(=O)=O)ccc2O[C@H]1CN(C)C(=O)Nc1ccc(C(F)(F)F)cc1	-12[16.7 µM]	0
C[C@H](CO)N1C[C@H](C)[C@H](CN(C)S(=O)(=O)c2ccccc2)Oc2c(NC(=O)c3nc4ccccc4s3)cccc2C1=O	0[16.7 µM]	0
Cc1noc(C)c1NC(=O)N[C@@H]1CC[C@@H](CC(=O)NCc2ccc(Cl)c(Cl)c2)O[C@H]1CO	-201[16.7 µM]	-16
C[C@@H]1CN([C@H](C)CO)C(=O)c2cc(NC(=O)Cc3ccccc3)ccc2O[C@@H](C)CCCCO[C@@H]1CN(C)Cc1ccncc1	-5[16.7 µM]	6
O=C(C[C@H]1C[C@H]2c3cc(NC(=O)C4CCOCC4)ccc3O[C@H]2[C@H](CO)O1)NCC1CC1	-13[16.7 µM]	-9
COCC(=O)N(C)C[C@H]1Oc2ncc(-c3ccc(C)cc3)cc2C(=O)N([C@@H](C)CO)C[C@H]1C	4[16.7 µM]	3
O=S(=O)(N[C@@H]1CC[C@H](CCn2cc(C3(O)CCCC3)nn2)O[C@H]1CO)c1ccccc1	-29[16.7 µM]	-10
CCCC#Cc1cnc2c(c1)C(=O)N([C@@H](C)CO)C[C@@H](C)[C@@H](CN(C)C(=O)Cc1cccnc1)O2	-26[16.7 µM]	3
COc1cccc(NC(=O)N(C)C[C@@H]2Oc3cc(-c4cccc(C(=O)N(C)C)c4)ccc3S(=O)(=O)N([C@H](C)CO)C[C@@H]2C)c1	1[16.7 µM]	-2
CN1C(=O)c2cc(NC(=O)c3cccs3)ccc2OC[C@@H]2O[C@H](CC(=O)NCCN3CCCCC3)CC[C@H]21	-8[16.7 µM]	24
CC(C)C#Cc1ccc2c(c1)O[C@@H](CN(C)C(=O)C1CCCCC1)[C@@H](C)CN([C@H](C)CO)S2(=O)=O	30[16.7 µM]	4
CN(C)C(=O)C[C@H]1CC[C@@H](NC(=O)Nc2cccc(F)c2)[C@@H](CO)O1	-4[16.7 µM]	-19
(continued)
SMILES	HIV Env fusion	Yeast UUG start
COCC(=O)Nc1ccc2c(c1)[C@H]1C[C@@H](CC(=O)NC3CCCCC3)O[C@H](CO)[C@H]1O2	0[16.7 µM]	0
Cc1ccc(S(=O)(=O)N(C)C[C@@H]2Oc3ccc(NS(=O)(=O)c4ccccc4)cc3C(=O)N([C@@H](C)CO)C[C@H]2C)cc1	15[16.7 µM]	7
Cc1noc(C)c1NC(=O)N[C@@H]1C=C[C@@H](CC(=O)Nc2ccccc2)O[C@@H]1CO	-3[16.7 µM]	-3
C[C@@H]1CN([C@H](C)CO)C(=O)c2cc(NC(=O)Nc3ccc(F)cc3)ccc2O[C@@H](C)CCCCO[C@@H]1CN(C)CC1CCCCC1	-15[16.7 µM]	22
N#C[C@@H]1[C@@H](c2ccc(C3=CCCCC3)cc2)[C@H](CO)N1S(=O)(=O)c1cccc(F)c1	-5[16.7 µM]	-17
Cc1ccc(S(=O)(=O)Nc2ccc3c(c2)C(=O)N([C@H](C)CO)C[C@@H](C)[C@H](CN(C)Cc2ccccc2)OCCCC[C@@H](C)O3)cc1	-9[16.7 µM]	15
C[C@@H]1CN([C@@H](C)CO)C(=O)Cc2cc(NS(=O)(=O)c3cccs3)ccc2O[C@@H]1CN(C)C(=O)NC1CCCCC1	-11[16.7 µM]	17
CCCN1C[C@@H](C)[C@@H](OC)CN(C)C(=O)c2ccc(NC(=O)Nc3cccc(F)c3)cc2OC[C@H]1C	-19[16.7 µM]	-5
O=C(C[C@@H]1CC[C@@H](NS(=O)(=O)c2ccccc2)[C@@H](CO)O1)NCCN1CCCCC1	3[16.7 µM]	-16
C[C@H]1CN([C@@H](C)CO)S(=O)(=O)c2ccc(C#Cc3ccccc3)cc2O[C@@H]1CN(C)C(=O)Nc1ccccc1	6[16.7 µM]	-4
O=C(C[C@H]1CC[C@@H](NC(=O)C2CC2)[C@@H](CO)O1)NC1CCC1	12[16.7 µM]	-14

The list is partial (hit frequency here may not be typical).
